FXIa inh = blocks human coagulation factor XIa activity; inhibition, % at 10 µM; actives 0.3% (n = 33,000); AID 687; P03951; purified human FXIa, fluorogenic AMC substrate cleavage;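 active = inhibition above 40% in the primary screen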;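 note: 0% = enzyme without compound and 100% = blank wells lacking enzyme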
An asterisk follows results filed as active. Only part of the results is shown; most or all hits stand in other tables.

entry	FXIa inh	canonical_smiles
1	-6	COc1cccc(-c2nc(-c3ccc(NC(=O)c4ccncc4)cc3)no2)c1
2	10	COc1cc(OC)cc(C(=O)n2nc(C)cc2C)c1
3	-11	Cc1ccccc1-c1nc(-c2ccc(NC(=O)c3ccc(Br)o3)cc2)no1
4	2	Nc1nc(C(=O)N2CCOCC2)nn1S(=O)(=O)c1ccc(Cl)cc1
5	-4	CCCC(=O)n1nc(-c2ccc(OC)cc2)nc1N
6	19	CC(=O)c1c(C)[nH]c(C(=O)COC(=O)CN(C)S(=O)(=O)c2ccc(Cl)cc2)c1C
7	-9	CCOc1ccc(CNc2ncnc(N)n2)cc1
8	-14	CCn1c(SCC(=O)c2ccc(OC)cc2)nnc1C1CC1
9	-2	Nc1nc(-c2cccnc2)nn1C(=O)Cc1ccccc1
10	2	COc1cc(NC(=O)c2ccc(Br)o2)ccc1NC(=O)C(C)C
11	9	COc1ccc(C(=O)n2nc(C)cc2C)cc1Br
12	29	Nc1nc(-c2ccco2)nn1C(=O)c1ccccc1
13	-6	O=C(Nc1ccc(-c2nc3cc(Cl)ccc3o2)cc1)C1CCCO1 (stereo not given)

Look-ups from the entries so far:
cpd 7 | FXIa inh: -9
cpd 11 | FXIa inh: 9
cpd 3 | FXIa inh: -11
cpd 10 | FXIa inh: 2
cpd 4 | FXIa inh: 2
cpd 13 | FXIa inh: -6

Arranged by length of the SMILES (largest number first): five of the compounds above.
entry	FXIa inh	canonical_smiles
13	-6	O=C(Nc1ccc(-c2nc3cc(Cl)ccc3o2)cc1)C1CCCO1 (stereo not given)
8	-14	CCn1c(SCC(=O)c2ccc(OC)cc2)nnc1C1CC1
2	10	COc1cc(OC)cc(C(=O)n2nc(C)cc2C)c1
12	29	Nc1nc(-c2ccco2)nn1C(=O)c1ccccc1
11	9	COc1ccc(C(=O)n2nc(C)cc2C)cc1Br

Source: PubChem (PCMD)
